E coli growth: blocks Escherichia coli growth | actives 0.21% (n = 330,000) | OD600 absorbance (concentration not given with the values) | AID 1053175 | OD600, 23 h; active compounds read low;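 active = OD600 absorbance below the run mean of sample wells minus 3.6 SD, in any replicate, cut at about 0.56 in these data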;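 also: stock transfer was 300 nL into about 60 µL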
FGF22 binding: binders of recombinant human FGF22 by thermal shift | Q9HCT0 | SYPRO orange fluorescence; percent of sucrose octasulfate shift, DMSO zero | calls only at 9.99 µM | actives 1.5% (n = 340,000) | AID 651658;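 active = melting point raised past a set limit in the mean and every replicate; inconclusive = no clear call; three in four hits are not shown here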
Target sequence (Q9HCT0 whole entry, looked up): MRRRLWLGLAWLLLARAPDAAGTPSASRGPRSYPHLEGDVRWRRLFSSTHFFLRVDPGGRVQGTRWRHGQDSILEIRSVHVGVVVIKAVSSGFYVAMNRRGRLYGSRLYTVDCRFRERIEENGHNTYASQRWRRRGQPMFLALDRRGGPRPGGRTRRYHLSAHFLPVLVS
HNF4A DNA FP: change in binding of human HNF4 alpha to DNA; P41235; activity change, % at 10 µM; HNF4a-FITC DNA binding, fluorescence polarization, 1 h; actives 0.3% (n = 360,000); in the data active = activity change above about 30%, passing the limit was not always enough;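 also: controls were the assay level and a saturating level of protein; the project sought stronger binding though the title names inhibitors; some compounds called inactive have numbers as strong as hits; positive values seem to mean higher polarization but the record does not say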
Target sequence (P41235 whole entry, looked up): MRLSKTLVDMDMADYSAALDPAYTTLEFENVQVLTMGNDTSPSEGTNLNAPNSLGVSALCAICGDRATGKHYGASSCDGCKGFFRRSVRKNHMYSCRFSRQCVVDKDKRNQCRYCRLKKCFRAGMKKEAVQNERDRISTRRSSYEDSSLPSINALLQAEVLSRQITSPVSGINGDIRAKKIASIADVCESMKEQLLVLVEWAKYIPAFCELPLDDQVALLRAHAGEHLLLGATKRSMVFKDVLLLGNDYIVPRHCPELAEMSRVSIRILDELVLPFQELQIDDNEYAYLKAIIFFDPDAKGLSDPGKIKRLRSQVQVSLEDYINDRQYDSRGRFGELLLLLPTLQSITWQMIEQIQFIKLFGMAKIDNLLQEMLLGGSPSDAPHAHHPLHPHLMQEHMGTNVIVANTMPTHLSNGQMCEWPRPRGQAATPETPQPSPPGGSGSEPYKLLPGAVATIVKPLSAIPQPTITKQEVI
ALR H2O2 inh: inhibitors of human sulfhydryl oxidase ALR. P55789. purified ALR, DTT oxidation, H2O2 HRP-luminol luminescence. inhibition, % (test concentration not listed). actives 3.8% (n = 290,000). AID 485317;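 active = mean and each replicate at 75% or more; inconclusive = only one of the two met; inactive = neither met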;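 also: stock transfer was 7.5 nL into about 7.5 µL; 0% = neutral wells and 100% = wells with inactivated enzyme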
Target sequence (P55789 whole entry, looked up): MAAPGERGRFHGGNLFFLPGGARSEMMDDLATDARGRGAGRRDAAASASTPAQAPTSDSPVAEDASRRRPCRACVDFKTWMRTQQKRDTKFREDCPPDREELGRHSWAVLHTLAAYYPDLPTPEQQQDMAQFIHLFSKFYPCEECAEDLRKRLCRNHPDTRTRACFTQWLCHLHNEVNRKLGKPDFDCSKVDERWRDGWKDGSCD
Vif TR-FRET: inhibitors of Vif binding to APOBEC3G peptide, primary screen, biochemical, TR-FRET, GST-Vif 1-94, biotin-A3G peptide, dose response retest (AID 1117319). TR-FRET GST-Vif / biotin-A3G peptide binding; higher % means a stronger effect; test concentration not given here; strong numbers were not always called active. inhibition, %, or IC50 in µM where a hit was titrated. actives 0.57% (n = 260,000);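 active = above the screen mean plus three standard deviations and confirmed in dose response; inconclusive = results disagree or hit not tested in dose response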;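 also: Vif residues 1-94 fused to GST binding biotinylated APOBEC3G peptide 110-148; 0% = full assay without inhibitor and 100% = GST in place of GST-Vif; retest series ran down from 100 µM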
rRNA inh HTS: inhibits bacterial ribosomal RNA function over humanized ribosomes | E. coli WT GFP vs humanized-ribosome RFP mutants, fluorescence, 24 h; active compounds read low; DMSO median 0, no signal -100 | actives 1.6% (n = 350,000) | AID 720706 | GFP signal change (wild-type ribosome), % (concentration not given with the values);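 active = significant combined selectivity score with lowered wild-type GFP, culture density cut under 30%, mutant RFP and density less affected; inactive = any of these conditions unmet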; also: one replicate is shown; some compounds called inactive have numbers as strong as hits
MLL AF4-AF9 inh: MLL-AF4/AF9 protein interaction inhibition; actives 0.47% (n = 350,000); inhibition, % at 10 µM; AlphaScreen, biotin-AF4 peptide binding to FLAG-AF9; P42568; AID 651704;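 active = every replicate reaching a set inhibition limit, whatever the replicate mean, cut at about 25% in these data; inconclusive = mean inhibition reaches that limit but some replicates miss it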;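 also: 0% = plate neutral control median and 100% = total signal loss; the record names both 10 and 1 µM as test concentration; the first replicate is given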
rRNA inh HTS OD600: also measured in rRNA inh HTS; calls as there; OD600 change, %; measured here: OD600 growth;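 optical density of the mix in the first replicate; 0 = DMSO median and -100 = no signal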
rRNA inh HTS RFP: recorded beside rRNA inh HTS, whose call it bears; RFP signal change, %; measured here: RFP humanized mutant strains;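 first replicate; 0 = DMSO median and -100 = no signal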
Starred values were filed as active, the others as inactive; i = inactive; ? = inconclusive; / = no result given; & = joins results of further samples. Some of the compounds tested; rates above refer to the full screens.

SMILES	E coli growth	FGF22 binding	HNF4A DNA FP	ALR H2O2 inh	Vif TR-FRET	rRNA inh HTS	rRNA inh HTS OD600	rRNA inh HTS RFP	MLL AF4-AF9 inh
COc1cccc(OCc2nnc(SCC(=O)OC3CCCCC3)n2C)c1	0.7	/	-0.1	-6	23%	/	/	/	/
CCOc1ccc(C(O)Cn2c(=N)n(CCN3CCCCC3)c3ccccc32)cc1 (stereo not drawn)	0.66	/	-2.0	-3	7%	/	/	/	/
COc1cccc(-c2c(-c3ccccc3OC)ncn2Cc2cccc(-c3ccccc3)c2)c1	/	i	9.4	/	/	-10	-14	3.0	/
CCOc1ccc(NC(=O)CN2C(=O)C3CC=CCC3C2=O)cc1 (stereo not drawn)	0.67	/	0.9	1	?	/	/	/	/
C[C@@H]1CN([C@H](C)CO)S(=O)(=O)c2ccc(-c3ccccc3F)cc2O[C@@H]1CN(C)C	/	i	/	/	/	-4	2	1.4	-2.9
CCCC#Cc1ccc2c(c1)O[C@@H](CN(C)S(=O)(=O)c1cccc(OC)c1)[C@@H](C)CN([C@@H](C)CO)S2(=O)=O	/	i	/	/	/	0	-7	-3.9	4.1
Cc1ccc(S(=O)(=O)c2nc(-c3ccco3)oc2N2CCC(C)CC2)cc1	0.71	i	-0.8	-2	1%	11	19	0.6	-8.0
CCOC(=O)C(NC(=O)c1ccc(F)cc1)(Nc1sc2c(c1C(N)=O)CCC2)C(F)(F)F (stereo not drawn)	0.74	i	5.6	3	20%	6	6	8.0	0.0
COc1ccccc1N(CC(O)CN1C(=O)NC(C)(C)C1=O)S(=O)(=O)c1ccc(C)cc1 (stereo not drawn)	0.75	/	-0.3	-1	77%	/	/	/	/
Cc1cc(C)c(NC(=O)CSc2nc3ncc(Cl)cc3[nH]2)c(C)c1	0.66	i	0.9	-1	1%	3	6	0.5	-2.4
COc1ccc2oc(=O)c(C(=O)NCC3CCCO3)cc2c1 (stereo not drawn)	0.73	/	1.0	-19	17%	/	/	/	/
C(#Cc1ccc2c(c1)COc1c3ccccc3nn1-2)c1ccccc1	0.71	i	19	20	/	-5	-24	-15	-1.2
O=C(C[C@H]1CC[C@@H]2[C@H](COC[C@H](O)CN2C(=O)c2ccccc2)O1)NCc1cccc(F)c1	/	i	/	/	/	0	10	0.9	-8.9
CC1=CC(=O)C=C/C1=C(/c1ccc(O)cc1C)c1ccccc1S(=O)(=O)O	0.72	i	3.5	0	-12%	-1	20	-0.2	11
CC(=O)C(C(C)=O)C(NC(=O)c1cccnc1)(C(F)(F)F)C(F)(F)F	0.71	/	0.0	-2	14%	/	/	/	/
COc1ccc(NC(=S)N(CCc2c(C)[nH]c3ccc(C)cc23)Cc2cccnc2)cc1	0.69	i	4.2	/	1%	-7	-14	0.8	10
CC1(C)COC(c2ccc3c(c2)OCO3)OC1	0.71	i	0.1	/	-4%	16	13	1.0	-3.0
CCC(=O)N1CC2(C1)CN(CC1CCCCC1)[C@@H](CO)c1c2c2ccc(OC)cc2n1C	/	i	/	/	/	1	-2	2.7	-3.4
COc1cc(C(=O)NCC(=O)Nc2c(C)cccc2C)ccc1OCC(=O)N1CCOCC1	0.64	i	-0.3	3	1%	16	13	2.7	2.3
CCCN(C)C[C@H]1OCCCC[C@@H](C)Oc2ccc(NC(=O)CCCN(C)C)cc2C(=O)N([C@H](C)CO)C[C@H]1C	/	i	/	/	/	0	11	0.9	1.2
Cc1ccc(CN2CC=CCS2(=O)=O)cc1	/	i	/	/	/	-6	-7	-1.4	-1.7
COc1ccc(S(=O)(=O)Nc2ccc3c(c2)C(=O)N([C@@H](C)CO)C[C@H](C)[C@@H](CN(C)Cc2ccc(-c4ccccc4)cc2)O3)cc1	/	i	/	/	/	0	1	0.6	1.8
Cc1cccc(/C=N/NC(=O)c2cccc([N+](=O)[O-])c2)n1	/	/	-2.9	-2	5%	19	18	1.5	-2.4
COc1ccc(C(=O)CSc2nc3cccnc3n2C)cc1	0.69	/	-1.5	-23	-35%	/	/	/	/
Cc1ccccc1C(O)c1ccccn1 (stereo not drawn)	0.71	/	0.7	-1	8%	/	/	/	/
CN(C)c1ccc(CNC(=O)c2cc(S(=O)(=O)N3CCOCC3)cn2C)cc1	0.71	i	-0.9	98*	/	4	6	0.7	-1.5
CCOc1ccccc1NC(=O)c1oc2ccccc2c1NC(=O)C1CCCO1 (stereo not drawn)	0.71	i	-3.3	-5	-6%	8	8	-1.8	-4.6
Cc1nn(C)c(C)c1S(=O)(=O)N1CCC(C(=O)NC2CCCc3ccccc32)CC1 (stereo not drawn)	0.72	i	2.8	-4	3%&-4%	1	0	2.3	-4.0
COc1ccccc1C(=O)NC(=O)COC(=O)CCNS(=O)(=O)c1ccccc1	0.7	i	0.9	3	4%	11	-1	0.3	-0.5
COc1cccc(-c2nnn(CC(=O)N3CCCCC3)n2)c1	0.73	i	-1.8	-15	/	-2	-1	-3.5	-9.9
Nc1cc(Cc2ccccc2)ccc1O	/	i	14	/	9%	0	9	2.5	4.6
CC(=O)N/C(=C\c1ccccc1)C(=O)OCC(=O)NC(=O)c1ccccc1	0.7	i	-0.6	16	5%	16	14	0.9	-0.2
Cc1nc2ncccn2c1-c1csc(Nc2ccc(O)cc2)n1	0.7	/	1.0	/	/	-15	-22	-8.6	2.6
O=S(=O)(/N=C(\[O-])C[n+]1ccccc1)c1ccc(Cl)cc1	/	i	0.9	-17	-5%	10	3	-1.6	-7.9
CCCC(O)(CCC)C(=O)NN1CCCCC1	0.73	i	-2.4	-3	2%	10	7	-0.3	3.5
CN(C)S(=O)(=O)c1ccc2c(c1)c(=O)c(C(=O)N1CCN(c3ccccn3)CC1)cn2C	0.69	i	-1.6	-11	-5%&-2%	4	5	-1.2	-0.5
COC(=O)Nc1nc(C)c(C(=O)N(C)C)s1	0.69	/	0.3	-26	11%	/	/	/	/
Nc1ncnc2c1ncn2[C@@H]1O[C@H](C(=O)NS(=O)(=O)c2cccc(F)c2)[C@@H](O)[C@H]1O	/	i	-2.4	/	/	5	12	-1.1	-1.9
COc1ccc(NC(=O)Nc2ccc3c(c2)C(=O)N([C@@H](C)CO)C[C@@H](C)[C@@H](CN(C)Cc2ccc(Oc4ccccc4)cc2)O3)cc1	/	i	/	/	/	5	2	7.8	-5.6
CCCCNC(=O)O/N=C(\N)CS(=O)(=O)C(C)(C)C	/	i	-1.0	-3	10%	10	4	-1.0	-3.6
NC(=O)N1CCN(CCCN2c3ccccc3Sc3cc(Cl)ccc32)CC1	/	i	0.4	/	/	-57	-77	-19	-0.9
Cc1nn(C)c(Cl)c1NC(=O)OCc1ccc(Cl)cc1Cl	0.63	/	4.5	3	30%	/	/	/	/
CCOc1ccc(NC(=O)CN(C)C(=O)c2cc(C)on2)cc1OCC	0.64	i	1.6	/	2%	-1	5	-2.9	3.9
CSc1ncc(C(=O)Nc2ccccc2Cl)c(C)n1	0.69	i	1.5	-7	-6%	9	12	-1.4	0.7
CNC(=S)N(CCc1ccc(OC)c(OC)c1)Cc1cc2c(C)cc(C)cc2[nH]c1=O	0.72	/	0.5	-3	29%	/	/	/	/

Shown with bars between the fields: part of the list above.
mol | E coli growth | FGF22 binding | HNF4A DNA FP | ALR H2O2 inh | Vif TR-FRET | rRNA inh HTS | rRNA inh HTS OD600 | rRNA inh HTS RFP | MLL AF4-AF9 inh
CCOc1ccc(C(O)Cn2c(=N)n(CCN3CCCCC3)c3ccccc32)cc1 (stereo not drawn) | 0.66 | / | -2.0 | -3 | 7% | / | / | / | /
Cc1cc(C)c(NC(=O)CSc2nc3ncc(Cl)cc3[nH]2)c(C)c1 | 0.66 | i | 0.9 | -1 | 1% | 3 | 6 | 0.5 | -2.4
CCC(=O)N1CC2(C1)CN(CC1CCCCC1)[C@@H](CO)c1c2c2ccc(OC)cc2n1C | / | i | / | / | / | 1 | -2 | 2.7 | -3.4
Cc1ccccc1C(O)c1ccccn1 (stereo not drawn) | 0.71 | / | 0.7 | -1 | 8% | / | / | / | /

Continued:
SMILES	E coli growth	FGF22 binding	HNF4A DNA FP	ALR H2O2 inh	Vif TR-FRET	rRNA inh HTS	rRNA inh HTS OD600	rRNA inh HTS RFP	MLL AF4-AF9 inh
NNc1nnc2c3cc(F)ccc3n(CCc3ccccc3)c2n1	0.69	/	2.0	7	5%	3	-3	1.9	2.6
c1ccc(-c2ncnc3nc4n(c23)CCC4)cc1	0.68	/	-1.1	-25	22%	/	/	/	/
COc1cccc(NCc2cc(=O)oc3cc(C)c(O)cc23)c1	0.7	i	-1.2	23	0%	8	10	-0.7	-0.7
CCCn1c(N2CCN(C)CC2)nc2c1c(=O)[nH]c(=O)n2C	0.7	/	-1.4	-19	/	/	/	/	/
COc1cccc(NC(=O)NCCCN2CCN(c3ccc(F)cc3)CC2)c1	0.7	/	-3.9	25	11%	/	/	/	/
CC(=O)NC1=C(Nc2ccc(N(C)C)cc2)C(=O)c2ccccc2C1=O	/	i	0.7	100*	/	-11	-27	1.2	22
Cc1cc(Cl)ccc1OCC(=O)N1CC(C)CC(C)C1 (stereo not drawn)	0.7	/	5.8	/	-1%	/	/	/	/
COc1ccc(/C=C2\C(=O)ON=C2c2cccc([N+](=O)[O-])c2)cc1	0.7	/	/	60	13%	10	2	4.0	1.6
C[C@@H]1CN([C@H](C)CO)C(=O)c2cccc(NC(=O)C3CC3)c2O[C@H]1CN(C)C(=O)NC1CCCCC1	/	i	/	/	/	3	2	-3.2	5.9
COc1ccc(OC)c(-n2cnc3cc(C(=O)NCCCN4CCOCC4)ccc32)c1	0.69	/	0.9	/	3%	/	/	/	/
O=C(NCc1cccnc1)Nc1ccc(Cl)c(Cl)c1	0.59	i	-3.9	-4	/	-26	-45	-7.7	2.3
O=C(Cc1csc(NC(=O)Nc2ccc(Cl)cc2)n1)NCc1ccccn1	0.61	i	1.7	/	2%	-23	-31	1.6	3.0
COc1nc(NC(C)(C)C)nc(Oc2ccc(=O)n(-c3ccccc3)n2)n1	0.73	/	3.2	-3	2%	/	/	/	/
CC(C)N(C(=O)[C@H]1C[C@H](CC(=O)NCCc2ccccn2)C(=O)N2CCc3c([nH]c4cc(CCC(=O)N(C)C)ccc34)[C@]12C)C(C)C	0.7	i	0.4	/	1%	-2	-3	-3.5	-0.1
COc1ccc(C)cc1-n1c(=O)c2ccccc2c2ccccc2c1=O	0.73	i	-2.1	/	11%	-26*	-8.7*	1.4*	-1.0
COc1cc2c(cc1OC)-c1cc(NC3CCCCCCC3)nc(=O)n1CC2	0.68	/	-3.6	-3	-4%	/	/	/	/
CCCN=C1N(C)C[C@@H]2[C@@H]3C(=O)N(C)C(=O)[C@@H]3[C@](C)(C(=O)OC)N12	0.66	/	0.5	/	-6%	10	17	-3.6	-4.9
COc1ccccc1C(=O)N1CC(=O)Nc2ccc(C)cc2C1c1ccc(F)cc1 (stereo not drawn)	0.68	i	-5.7	-15	-10%	0	3	1.3	1.6
CSCCC(NC(=O)c1ccco1)C(=O)OCC(=O)N1c2ccccc2NC(=O)C1(C)C (stereo not drawn)	0.66	i	-0.8	1	5%	5	12	-2.3	3.9
COc1ccc(S(=O)(=O)Nc2ccc3c(c2)C(=O)N([C@H](C)CO)C[C@@H](C)[C@@H](CN(C)S(=O)(=O)c2ccc(Cl)cc2)OCCCC[C@@H](C)O3)cc1	/	i	/	/	/	0	-3	-1.0	-2.5
CCC(C(=O)Nc1cc(Cl)c(OC)cc1OC)c1ccccc1 (stereo not drawn)	0.74	i	2.8	0	-10%	-9	-13	-2.7	0.7
COc1ccccc1NC(C)C(=O)Nc1ccc(C(C)=O)cc1 (stereo not drawn)	0.65	i	0.7	99*	2%	4	3	1.2	7.8
